KCNQ2 inh = KCNQ2 channel blockers in CHO-K1 cells – cell-based, FluxOR thallium flux, B-score, primary screen (AID 2156); O88943; B-score at 10 µM; 310,000 tested, 1.1% active; 20 min; stronger effect = lower value; only compounds with negative scores are shown here; some inactives read as strong as hits;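 active = fluorescence ratio B-score at most minus 3 library SDs, with starting brightness B-score within 2 library SDs, cut at about -5.5 in these data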
Target sequence (O88943 whole entry, looked up): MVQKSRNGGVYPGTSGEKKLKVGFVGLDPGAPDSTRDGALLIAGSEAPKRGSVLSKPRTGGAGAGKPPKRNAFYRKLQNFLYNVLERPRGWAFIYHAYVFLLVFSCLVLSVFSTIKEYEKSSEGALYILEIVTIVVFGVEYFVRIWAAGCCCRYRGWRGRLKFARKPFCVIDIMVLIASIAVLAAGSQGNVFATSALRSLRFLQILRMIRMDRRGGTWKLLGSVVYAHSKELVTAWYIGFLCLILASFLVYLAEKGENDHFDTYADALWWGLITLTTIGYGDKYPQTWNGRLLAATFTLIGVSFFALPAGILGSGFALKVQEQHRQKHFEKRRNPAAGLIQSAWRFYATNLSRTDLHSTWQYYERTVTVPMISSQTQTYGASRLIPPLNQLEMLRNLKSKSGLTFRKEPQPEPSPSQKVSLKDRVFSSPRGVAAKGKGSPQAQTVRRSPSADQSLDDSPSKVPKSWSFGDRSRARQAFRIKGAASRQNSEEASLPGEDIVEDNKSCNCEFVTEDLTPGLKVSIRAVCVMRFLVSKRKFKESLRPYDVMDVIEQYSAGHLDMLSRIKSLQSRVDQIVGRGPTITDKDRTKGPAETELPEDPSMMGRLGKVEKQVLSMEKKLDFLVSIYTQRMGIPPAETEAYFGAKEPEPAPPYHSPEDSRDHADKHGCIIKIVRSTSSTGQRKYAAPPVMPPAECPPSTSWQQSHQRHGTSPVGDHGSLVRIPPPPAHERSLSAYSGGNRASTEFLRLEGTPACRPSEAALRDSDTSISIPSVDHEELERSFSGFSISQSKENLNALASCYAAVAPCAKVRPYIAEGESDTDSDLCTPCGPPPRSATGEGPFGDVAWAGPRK
KCNQ2 inh baseline = further read-out of KCNQ2 inh, marked with its call; B-score; measured here: initial fluorescence intensity artifact check;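 brightness before thallium and not channel activity; 0 = typical well and far values either way flag optical interference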
* = called active by the depositor; i = inactive. An excerpt (hit frequency here may not be typical).

structure	KCNQ2 inh baseline	KCNQ2 inh
NS(=O)(=O)c1ccc(CCNC(=O)COc2ccc3c4c(c(=O)oc3c2)CCC4)cc1	-0.78	i
Nc1cc(OC(=O)c2ccco2)nn1S(=O)(=O)c1ccc(F)cc1	-1.59	i
COc1ccccc1Oc1cc(-n2nc(C)cc2C)ncn1	1.22	i
COc1ccc(CCN2C(=O)CC(NC34CC5CC(CC(C5)C3)C4)C2=O)cc1OC (stereo not given)	1.83	i
CSc1ccccc1NC(=O)N1CCCC(C(=O)c2ccc3c(c2)OCO3)C1 (stereo not given)	-0.17	i
O=C(NNC(=O)C1CC(c2cccs2)=NO1)NC1CCCCC1 (stereo not given)	1.26	i
CC1=NN(C(=O)COc2cc(C)ccc2C(C)C)C(O)(c2ccccc2)C1 (stereo not given)	1.97	i
Cc1ccc2nc3c(c(Nc4ccc5c(c4)OCCO5)c2c1)CCC3	-0.6	i
Cc1ccc(/C=C2/NC(=O)N(Cc3ccccc3F)C2=O)s1	0.73	i
CCCCNC(=O)OCC(CC)NC(=O)OCC(C)C (stereo not given)	0.53	i
CCC/C(O)=C1\C(=O)CC(C)(C)CC1=Nc1ccc(OC)cc1OC	-0.47	i
CCn1nc(C(=O)OCC(=O)N2c3ccccc3CC2C)c2ccccc2c1=O (stereo not given)	0.68	i
CCCC(=O)Nc1nnc(S(=O)(=O)N(C)Cc2ccco2)s1	-0.91	i
COc1cc(NC(=O)C2CC(=O)NC3=C2C(=O)CCC3)cc(OC)c1 (stereo not given)	1.11	i
O=C(NC1CCCCC1)C1CCCN(S(=O)(=O)c2ccc(F)cc2)C1 (stereo not given)	0.93	i
Clc1nccnc1N/N=C/c1ccc(Br)cc1	3.31	i
NC(=O)COC(=O)C12CC3CC(CC(O)(C3)C1)C2	0.85	i
O=C(CCNS(=O)(=O)c1cccc2nsnc12)NCc1ccc(F)cc1	1.08	i
CCC1=Nc2cc(C(=O)NCCCOC)ccc2Sc2ccccc21	0.87	i
O=C(CN1CCN(S(=O)(=O)c2ccc(Cl)cc2)CC1)Nc1ccc(F)cc1F	-0.11	i
COc1ccc(N(C(=O)Cc2cccs2)C(C(=O)NC2CCCCC2)c2cccn2C)cc1 (stereo not given)	0.33	i
CCOC(=O)C1CCN(C(=O)COc2ccc(N(C)S(=O)(=O)c3ccc(C)cc3)cc2)CC1	1.72	i
Cc1ccc(-c2nnc(CCC(=O)N(C)Cc3nccs3)o2)s1	1.36	i
C=CCn1c(C)cc(C(=O)COc2ccc(S(=O)(=O)N3CCCC3)cc2[N+](=O)[O-])c1C	1.22	i
COc1cc(/C=N/Nc2ccc([N+](=O)[O-])cc2S(=O)(=O)N2CCOCC2)cc(OC)c1OC	0.04	i
Cc1nn(-c2ccccc2)c(C)c1/C=N/NC(=O)CSc1nc2ccccc2c(=O)n1-c1ccccc1	0.03	i
CCOC(=O)c1ccc(NCn2c(=O)oc3ccccc32)cc1	-2.07	i
Cc1cc(Cl)ccc1C(=O)C1CCCN(C(=O)c2cncs2)C1 (stereo not given)	-0.42	i
COc1cccc(NC(=O)C2CC(=O)N(C)C(=Nc3cccc(F)c3)S2)c1 (stereo not given)	1.94	i
CN=C1S/C(=C\c2cccn2-c2cccc(Br)c2)C(=O)N1C	1.05	i

Whole records, quoted from the list. Order of values: KCNQ2 inh baseline	KCNQ2 inh
Listed for NS(=O)(=O)c1ccc(CCNC(=O)COc2ccc3c4c(c(=O)oc3c2)CCC4)cc1 = -0.78	i
Listed for CSc1ccccc1NC(=O)N1CCCC(C(=O)c2ccc3c(c2)OCO3)C1 (stereo not given) = -0.17	i
Listed for Cc1cc(Cl)ccc1C(=O)C1CCCN(C(=O)c2cncs2)C1 (stereo not given) = -0.42	i
Listed for CCOC(=O)c1ccc(NCn2c(=O)oc3ccccc32)cc1 = -2.07	i

The listing picks up, starting four compounds before the break.
structure	KCNQ2 inh baseline	KCNQ2 inh
CCOC(=O)c1ccc(NCn2c(=O)oc3ccccc32)cc1	-2.07	i
Cc1cc(Cl)ccc1C(=O)C1CCCN(C(=O)c2cncs2)C1 (stereo not given)	-0.42	i
COc1cccc(NC(=O)C2CC(=O)N(C)C(=Nc3cccc(F)c3)S2)c1 (stereo not given)	1.94	i
CN=C1S/C(=C\c2cccn2-c2cccc(Br)c2)C(=O)N1C	1.05	i
Cc1cccc(N=Nc2c(C)[nH]n(-c3ccccc3)c2=O)c1	0.62	i
O=C(NC(=S)Nc1ccc2nc[nH]c2c1)c1ccccc1	-2.62	i
COc1cccc(C(=O)NCC(c2ccc3c(c2)OCO3)N2CCN(c3ccc(F)cc3)CC2)c1 (stereo not given)	0.46	i
CCN(CC)c1ccc(/C=N/n2c(-c3ccccc3Br)n[nH]c2=S)cc1	-1.42	i
CN1CCN(C(=O)c2ccc(-c3nn(C)c(=O)c4ccccc34)cc2)CC1	0.85	i
CSC(=S)N/N=C/c1c[nH]c2ccccc12	0.2	i
C#CCOCCOCCOCCNc1nc(N2CCN(C(=O)[C@H](C)n3cc(CCCN=C(N)N)nn3)CC2)nc(N2CCN(C(=O)[C@H](C)n3cc(CCCN=C(N)N)nn3)CC2)n1	-0.46	i
COC(=O)c1cn(NC(=O)/C=C/c2ccc(OC)c(OC)c2)c(=O)c2ccccc12	-0.63	i
Cc1onc(-c2ccccc2Cl)c1C(=O)NCCn1ccc2ccccc21	0.03*	-5.59*
O=C(/C=C/Nc1ccc(F)c(F)c1)c1cccs1	1.06	i
O=C(NCc1cc(C(F)(F)F)cc(C(F)(F)F)c1)C1CC(c2cccc(F)c2)=NO1 (stereo not given)	3.39	i
CCOC(=O)CSc1n[nH]c(NC(=O)c2cccc(C)c2)n1	-2	i
O=C(c1ccccc1)c1ccc(C(=O)N2CCCC(C(F)(F)F)C2)cc1 (stereo not given)	-0.33	i
CCCc1nc2ccccc2c(=O)n1/N=C/c1ccccc1O	-0.13	i
COc1ccc2c(c1)/C(=N/N1C(=O)c3ccccc3C1=O)C(=O)N2	0.48	i
Cc1c(C(=O)NC2CCCCC2)oc2ccc(F)cc12	1.11	i
Cc1ccc2nc(SCC(=O)NCc3cccs3)c(C#N)cc2c1	-1.71	i
Cc1ccc(C(=O)N2N=C(c3cccc(NS(C)(=O)=O)c3)CC2c2cccs2)cc1 (stereo not given)	0.36	i
O=C(c1ccc(N2CCCCCC2)c([N+](=O)[O-])c1)N1CCc2ccccc21	-0.98	i
CCCCCCC(=O)NN1CCN(C)CC1	-0.13	i
CCC(C)(C)n1nnnc1C(c1ccc(OC)c(OC)c1)N1CCN(C(=O)c2ccco2)CC1 (stereo not given)	0.73	i
CCN1C(=O)[C@H]2[C@@H](c3ccc(-c4cccc(Cl)c4)cc3)N3CCCC[C@@]3(C(=O)OC)[C@H]2C1=O	0.58	i
CCOC(=O)c1cc(C#N)c(N2CCN(c3ccccn3)CC2)nc1-c1ccccc1	0.11	i
O=C(c1ccccc1)N(Cc1ccc2c(c1)OCO2)Cc1nc2ccccc2c(=O)[nH]1	0.73	i
COc1ccccc1Oc1nc2c(c(=O)n(Cc3ccccc3F)c(=O)n2C)n1C	0.15	i
O=[N+]([O-])c1ccccc1-c1nc(-c2ccc(Br)o2)no1	0.63	i
CN1c2ccccc2N(C)C1c1ccc2c(c1)OCO2	1.29	i
C=CCn1c(SCC(=O)NCC2CCCO2)nc2scc(-c3ccco3)c2c1=O (stereo not given)	-0.48	i
O=C(CCCC(=O)OCC(F)(F)C(F)F)Nc1ccccc1F	2.01	i
Oc1ccccc1C(=S)N1CCCCC1	1.16	i
COC(=O)CSc1nc(Cc2ccccc2)nc2ccccc12	2.97	i
Cc1ccc(Nc2nc(COC(=O)C3CC3)cs2)cc1	-1.09	i
CCCCc1ccc(NC(=O)Nc2c(C)n(C)n(-c3ccccc3)c2=O)cc1	0.47	i
O=c1c2ccccc2nc(-c2ccccc2)n1CCCN1CCOCC1	0.66	i
COc1cc([N+](=O)[O-])c(C(=O)N2CCOCC2)c([N+](=O)[O-])c1	-1.35	i
O=C(c1ccc2ccccc2c1)C1CCCN(C(=O)CCn2cnnn2)C1 (stereo not given)	-0.42	i
CCC(=O)N1CCN(c2ccc(NC(=O)c3ccc4c(c3)OCCO4)cc2)CC1	1.74	i
COC(=O)c1ccc(NC(=O)CS(=O)(=O)Cc2ccccc2)cc1	-0.39	i
COc1ccccc1CNS(=O)(=O)c1cc2c3c(c1)C(C)C(=O)N3CCC2 (stereo not given)	0.4	i
COc1ccccc1CN1C[C@@H]2C[C@@H](c3ccccc3C)N3CCC[C@@]23C1=O	0.05	i
C=CCn1c(SCC(=O)NCc2ccccc2)nnc1-c1ccccc1O	-0.49	i
CCCC(=O)Nc1ccccc1NC(=O)c1ccc(OCC)cc1	1.2	i
Cc1ccc(NC(=O)C2(c3ccc([N+](=O)[O-])cc3)CCCC2)cc1	-0.59	i
CCN(CC)S(=O)(=O)c1ccc(-c2nnc(SCC(=O)Nc3ccc(OC)cc3)o2)cc1	0.5	i
CC(=O)NC(Cc1ccc(F)c(F)c1)C(=O)NC1CCN(c2c(Cc3ccccc3)c(C)nc3ncnn23)CC1 (stereo not given)	1.33	i
CC(NC(=O)Cc1ccc(Br)cc1)c1ccccc1 (stereo not given)	0.25	i
O=C(CCS(=O)(=O)c1ccc(Br)s1)NCc1ccccc1	-1.12	i
COc1ccc(OCCCC(=O)N2CCN(S(=O)(=O)c3cccc(F)c3)CC2)cc1	-0.24	i
COc1ccc(NC(=O)c2cccs2)cc1O	-0.58	i
CC(C)(C)C1CCc2c(sc(NC(=O)CSc3ncn[nH]3)c2C#N)C1 (stereo not given)	1.26	i
Oc1c(C(c2ccccn2)N2CCOCC2)ccc2cccnc12 (stereo not given)	-0.71	i
O=C(C1=C(O)C(=O)N(CCOCCO)C1c1ccccn1)c1cccs1 (stereo not given)	-0.09	i
CC(C)CNS(=O)(=O)c1ccc(CCC(=O)NCc2ccc(Cl)cc2)cc1	0.61	i
CCOC(=O)c1sc2nc(C)cc(C)c2c1NC(=O)c1ccco1	-0.08	i
Cc1cc(S(=O)(=O)NCCN2CCOCC2)ccc1Cl	-0.14	i
Cc1ccc(N2C(=O)CSC23C(=O)Nc2ccccc23)cc1 (stereo not given)	-0.77	i
CC(C(N)=O)N1C(=O)C2C3C=CC(C3)C2C1=O (stereo not given)	0.61	i
CCCNC(=O)C(=O)NCCC1=CCCCC1	0.37	i
c1cc(-c2sc(-c3ccncc3)c(-c3ccncc3)c2-c2ccncc2)ccn1	0.03	i
CCC(C)N(C(=O)c1csnn1)C(C(=O)NC1CCCC1)c1ccccc1F (stereo not given)	0.19	i

The results go on:
structure	KCNQ2 inh baseline	KCNQ2 inh
N#Cc1c(-c2ccc(Cl)cc2)c2c([nH]c1=S)CCCC2	-0.43	i
COCCN=c1scc(-c2cc(OC)c(OC)c(OC)c2)n1/N=C/c1c(C)[nH]c2ccccc12	0.61	i
O=C(Nc1ccccc1N1CCN(C(=O)c2ccc(Cl)cc2)CC1)c1cc(Br)ccc1Cl	-0.45	i
CCOC(=O)C1C(=O)C=C(/C=C/c2ccc(N(C)C)cc2)CC1c1ccccc1 (stereo not given)	4.49	i
CCOC(=O)C1CCN(C(=O)C(CC)c2ccccc2)CC1 (stereo not given)	-0.04	i
CC1CCN(S(=O)(=O)c2cc(C(=O)N3CCN(c4ncccn4)CC3)ccc2Br)CC1	2.18	i
CCc1ccc(OCC(=O)NNC(=O)c2ccc(NC(=O)C3CC3)cc2)cc1	-0.16	i
COc1ccc(/C(=N\O)c2ncc(C(F)(F)F)cc2Cl)cc1	-0.05	i
Cc1cccc(Nc2nc(N3CCCC3)nc(N3CCCC3)n2)c1	-0.12	i
Cc1ccccc1OCCOCCN1CCCCCC1	1.48	i
CCOC(=O)N1CCN(C(=O)c2cc(OC)c(OC)c(OC)c2)CC1	1.28	i
Cn1c(=O)c2c(nc(CN3CCc4ccccc4C3)n2Cc2ccc(F)cc2)n(C)c1=O	1.52	i
O=c1c2nnn(-c3ccc(Cl)cc3)c2ncn1Cc1ccccn1	-0.56	i
COc1ccccc1C(=O)Nc1ccc2[nH]ncc2c1	-0.89	i
Cc1ccc(C(NC(=O)c2ccccc2)C(Cl)Cl)cc1 (stereo not given)	-1.47	i
COc1cc(-c2nc(CCNC(=O)c3ccco3)cs2)cc(OC)c1OC	1.31	i
Cc1cc(S(=O)(=O)N2CCOCC2)ccc1OCC(=O)NCCN1CCOCC1	3.02	i
Cc1ccc(-c2nn(-c3ccc(F)cc3)cc2C(=O)NCC(c2cccs2)N2CCOCC2)cc1 (stereo not given)	1.25	i
CC(C)CC(N=C1NC(C)(C)Cc2ccccc21)C(=O)O (stereo not given)	-0.13	i
COc1ccc2c(c1)c(CC(=O)Nc1cc(C)ccc1C)c(C)n2C(=O)c1ccc(Cl)cc1	0.91	i
CCOC(=O)N1CCC(N2CCN(S(=O)(=O)c3ccc(NC(C)=O)cc3)CC2)CC1	1.48	i
COC(=O)c1c(N(S(C)(=O)=O)S(C)(=O)=O)sc2c1CCN(c1ncc(C(F)(F)F)cc1Cl)C2	0.34	i
COCc1c(C(=O)N/N=C/c2ccco2)nnn1-c1nonc1N	1.25	i
